Screens as filed in PubChem.
NPYLR7 agonist: agonists of mosquito NPYLR7 receptor, primary screen, cell-based, Aedes aegypti, calcium fluorescence, mosquito biting behavior; Aedes aegypti neuropeptide Y-like receptor 7 (NPYLR7); HEK293T NPYLR7/Galpha15, GCaMP6s calcium fluorescence; activation, % at 10 µM; 270,000 tested, 0.15% active; in the data active means activation above about 40%;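 further: 0% = vehicle and 100% = reference agonist at the receptor; some compounds past the cut are filed as inactive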
NPYLR7 agonist max-min: recorded beside NPYLR7 agonist, whose call it bears; activation, %; measured here: Max-Min RFU normalised activation; some inactives read as strong as hits;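 span of the calcium signal over five minutes; 0% = vehicle and 100% = native peptide agonist; compound fluorescence can raise it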
Starred values were filed as active, the others as inactive; & = joins results of further samples. The list is partial (hit frequency here may not be typical).

Start of the listing, in advance (2 entries):
mol,NPYLR7 agonist max-min,NPYLR7 agonist
Cn1c(NCC(O)c2ccc(Cl)cc2)c(C#N)c(=O)n(C)c1=O (centres undefined),12,17
Cn1nccc1-c1ccc2c(n1)C(=O)N(C1(C(=O)NCc3ccc(F)cc3)CC1)C2,21,11

The listing (from the top)
mol,NPYLR7 agonist max-min,NPYLR7 agonist
Cn1c(NCC(O)c2ccc(Cl)cc2)c(C#N)c(=O)n(C)c1=O (centres undefined),12,17
Cn1nccc1-c1ccc2c(n1)C(=O)N(C1(C(=O)NCc3ccc(F)cc3)CC1)C2,21,11
COc1cc(C)ccc1C1=NNC(=Nc2ccccc2)SC1,-4,-3
CC1CCN(C(=O)Cn2cnc3sc4c(c3c2=O)CCC(C)C4)CC1 (centres undefined),8,-7
C#CCN(Cc1nccn1CC)C1CCc2ccccc21 (centres undefined),-8,-8
CCOC(=O)NN=Cc1ccc(N2CCOCC2)s1,24,38
O=C(Nc1cccc(I)c1)NC1CCCOC1 (centres undefined),7,6
O=C(Nc1ccc(C2SCC(=O)N2c2ccc3c(c2)CCC3)cc1)c1ccc(Cl)c([N+](=O)[O-])c1 (centres undefined),31,16
CN(C)S(=O)(=O)N1CC[C@@H](c2ccc3ccccc3c2)[C@H](O)C1,13,19
CCOC(=O)C1CCN(C(c2cccc(C(F)(F)F)c2)C2Sc3nc(CC)nn3C2=O)CC1 (centres undefined),22,4
COc1cc(C(=O)Oc2ccc(C=C(C#N)C#N)cc2)cc(OC)c1OC,-9,-6
COc1ccc(CN2CCOC(c3ccc(F)cc3)C2)cc1Cn1cncn1 (centres undefined),3,4
COc1c(C)cnc2c1c(=O)n(CC(=O)N1CCCCC1)c(=O)n2C,-1,1
COc1ccc(CCOc2nc(-c3ccc(OC)cc3)n(-c3ccc(NC(=O)c4cccs4)cc3)n2)cc1,6,-3
O=C(c1ccc2[nH]c3c(c2c1)CCCC3)N1CCc2c([nH]c3ccccc23)C1c1ccccn1 (centres undefined),8&-5,16&-4
C=CCn1c(=O)c2c(nc3n2CC(C)=NN3Cc2cc(C)ccc2C)n(C)c1=O,-10,-9
CC(C(=O)N1CCc2c(nc(-c3ccncc3)nc2N(C)C)C1)n1cccn1 (centres undefined),-2,4
Cc1ccc(N2C(=O)[C@@H]3C[C@@H](NC(=O)c4cccn4C)CCN3C2=O)cc1,-11,-8
CN(Cc1ccccc1)C(=O)c1nc2ccccn2c1CNCCc1cccnc1,16,12
CCCN(Cc1c(-c2ccc(F)cc2)noc1N(CC)CC)C(=O)Cc1ccccc1,9,7
CCN(C)C(=O)c1ccc(N2CCC(c3[nH]ncc3-c3ccccc3)CC2)nc1,-9,-9
Cc1cccc2nc(NC(=O)c3ccnn3C)sc12,-11,-9
CCCCCN(CC(=O)N(CCc1ccccc1)Cc1ccc(C)o1)C(C)C(=O)OC (centres undefined),9,3
O=C(Nc1cccc(F)c1)N[C@H]1CCCCNC1=O,-18,-8
COCCN(Cc1ccccc1OS(C)(=O)=O)C(=O)c1ccccc1Cl,20,10
O=C(NCc1ccco1)C(C1CCCC1)N1CCN(C(=O)Nc2cccc(F)c2)CC1 (centres undefined),-5,-5
CCOC(=O)Cn1c(Cl)c(/C=N\NC(=O)c2ccccc2Cl)sc1=O,-13,-10
CC1(C)CC(=O)C=C(Nc2ccc(Br)cn2)C1,1&1,3&-1
O=c1[nH][nH]c2c1CCN(Cc1cc3n(n1)CCCNC3)CC2,17,18
Nc1ccc(S(=O)(=O)NC2=NCCCCC2)cc1N,3,2
c1ccc(N2CCC(=NC3=NCCCCC3)N2)cc1,-1,-2
CC[C@H]1NS(=O)(=O)c2ccccc2[C@@H]1O,31,23
CCc1cc2c(SCc3cc(=O)n4c(C)csc4n3)ncnc2s1,0,0
CC(=O)N1N=C(Cc2ccccc2)OC1C(=O)NC[C@@H]1[C@H](C=C(C)C)C1(C)C (some centres undefined),14,21
CC(=O)c1ccc(OCC(=O)NCCN2C(=O)SC(=Cc3ccccc3Cl)C2=O)cc1,-10,-3
CCOc1ccc(-c2csc(NC(=O)c3cc(OC)cc(OC)c3)n2)cc1,-6,-3

Some of the entries so far, with two lines to a compound:
Under each structure – NPYLR7 agonist max-min | NPYLR7 agonist
- CCOc1ccc(-c2csc(NC(=O)c3cc(OC)cc(OC)c3)n2)cc1
 : -6 | -3
- CCOC(=O)Cn1c(Cl)c(/C=N\NC(=O)c2ccccc2Cl)sc1=O
 : -13 | -10
- CC(=O)c1ccc(OCC(=O)NCCN2C(=O)SC(=Cc3ccccc3Cl)C2=O)cc1
 : -10 | -3

Continuation:
mol,NPYLR7 agonist max-min,NPYLR7 agonist
O=C(C1CCN(C(=O)[C@@H]2CCCN2C(=O)Nc2ccc(I)cc2)CC1)N1CCCCC1,31,33
O=C(NC(C(=O)Nc1ccccc1)C1CCN(C(=O)c2cccc(F)c2)CC1)c1ccc(F)cc1 (centres undefined),0,-1
Cc1ccc(NC(=O)C2(C)CCN2Cc2cc3ccccc3o2)cc1O (centres undefined),1,4
CCC(c1cccnc1)N(C)C(=O)c1ccc(CO)o1 (centres undefined),3,6
CC1(C(=O)NS(=O)(=O)Cc2ccccc2)CCN1C(=O)CCC1CCCC1 (centres undefined),-1,3
COc1cc(C(=O)NCCc2csc3nc(-c4ccccc4C)nn23)c([N+](=O)[O-])cc1OC,-6,-5
CC(=O)c1ccc(-n2c(=O)c3ccccc3n(C(C)C(=O)NCc3cccnc3)c2=O)cc1 (centres undefined),11,13
CC(C(=O)NCc1cccc(Cl)c1)N(c1ccccc1)S(C)(=O)=O (centres undefined),3,6
N#CC1C(=N)C(C#N)(C#N)C(c2ccc(F)cc2)C=C1c1ccccc1 (centres undefined),3,3
c1ccc(CN(Cc2nccs2)Cc2cccn2-c2ncccn2)cc1,3,2
CN(C)C(=O)C(c1ccccc1)N1CCC(O)(C(F)(F)F)C1 (centres undefined),1&-2,2&0
COc1cc2sc(=NC(=O)c3cc(C)no3)n(C)c2cc1OC,1,-1
Cn1c(=O)c2cc(C(=O)NCc3cccnc3)n(Cc3ccccc3)c2n(C)c1=O,-1,0
O=C(CC1CSc2nc3c(cnn3-c3ccccc3)c(=O)n21)Nc1ccon1 (centres undefined),-2,0
Cc1nc2ccc(C(=O)N(CCC#N)CC3CCCO3)cc2[nH]1 (centres undefined),4,11
COC(=O)CCCCCCCCC(=O)NCC(=O)N1CCC(C(=O)N2CCCCC2)CC1,25,28
O=C(Nc1nc(CN2CCOCC2)cs1)c1ccc2c(c1)CCO2,-1,1
CCC(C(=O)N1CCC2(CC1)NC(=O)c1c(ccc(Cl)c1Cl)N2)c1ccccc1 (centres undefined),13,3
COc1ccccc1-c1ccc(NCC2COCCO2)nn1 (centres undefined),-6,-4
COCc1cccc(NC(=O)c2ccc(N3CCCCC3=O)cc2)c1,0,0
Cn1cccc(NC(=O)NC2CCN(C3CCCC3)CC2)c1=O,1,5
Fc1ccc(C2c3cccn3CCCN2Cc2ccsc2)cc1 (centres undefined),9,4
CC(C)c1nnc(SCC(=O)N(C)c2ccccc2)n1C1CC1,1,4
CC1=C[C@@H](CNCc2ccco2)[C@H](C(C)C)C[C@H]1Cc1nnc(C(C)(C)C)o1,-11,-7
COc1cc(NCCCc2scnc2C)ncn1,10,11
CC(C)C(=O)N1CCN(CC(=O)N(C)CC(=O)NC(C)(C)C)CC1,19,31
COc1cccc2cc(-c3nc4ccccc4[nH]3)/c(=N/NC(=O)c3ccccc3)oc12,-7,-1
CC1CCCC2(C1)OCC(C(=O)N1CCCC1)N2C(=O)c1cccc(C(F)(F)F)c1 (centres undefined),12,4
O=S(=O)(CCNC1CCC2(CCNCC2)CC1)N1CCCC1,8,10
CC(C)Oc1ccc(C(=O)NCc2nnnn2-c2ccc(F)c(F)c2)cc1,-2,-1
CCCOC1CCCN(C(=O)c2cnc(C(C)C)nc2C)C1 (centres undefined),27,1
Cc1ccc(NC(=O)c2cc(-c3ccccc3F)nn2-c2ccc(C)cc2)cc1,2,-4
CC1(C(Br)Br)C=CC=CC1=O (centres undefined),-7,-2
O=C(C1=CCCCC1)N1CCC(n2c(Cc3ccccc3)nc3ccccc32)CC1,19,6
NS(=O)(=O)N1CCN(C(=O)c2cc(Cl)sc2Cl)CC1,-1,-3
O=C(CC1(O)C(=O)Nc2ccccc21)c1ccco1 (centres undefined),2,2

For reference, three of the compounds above.
mol,NPYLR7 agonist max-min,NPYLR7 agonist
O=C(C1=CCCCC1)N1CCC(n2c(Cc3ccccc3)nc3ccccc32)CC1,19,6
NS(=O)(=O)N1CCN(C(=O)c2cc(Cl)sc2Cl)CC1,-1,-3
O=C(CC1(O)C(=O)Nc2ccccc21)c1ccco1 (centres undefined),2,2

Other results.
mol,NPYLR7 agonist max-min,NPYLR7 agonist
CCOCCC(=O)N1CCN(CC(=O)NC2CCCC(C)C2)CC1 (centres undefined),6,7
CN(C(=O)CSc1nc2[nH]ncc2c(=O)[nH]1)c1ccccc1,-24,-24
CCCc1nnc2sc(C(C)n3cnc4ccccc4c3=O)nn12 (centres undefined),-6,-3
COCCCN(CC(=O)N(CCc1c[nH]c2ccccc12)Cc1ccc(OC)c(OC)c1)C(=O)COc1ccc(Cl)cc1,29,22
CCc1noc(C(C)SCCn2nc(C)cc2C)n1 (centres undefined),-2,2
Cc1ccc(C(=O)NNC(=O)N2CCN(c3ccccc3O)CC2)cc1,-1,-1
Cc1cccc(Nc2ncccc2C(=O)N2CCCC2c2nnc3c(C(F)(F)F)cccn23)c1C (centres undefined),-17,-11
CCOC(=O)C1(Cc2ccccc2C)CCCN(C(=O)c2cnccn2)C1 (centres undefined),0&11,3&-1
CCCCN(Cc1ccc(C)s1)C(=O)Cn1ccc(=O)c2ccccc21,6,14
CCOC(=O)c1cc(-c2ccc(Cl)cc2)n(-c2ccc(C(=O)NCc3ccco3)cc2)n1,0,2
Cc1noc(C)c1CCC(=O)NC1CCCN(S(C)(=O)=O)C1 (centres undefined),10,13
Cc1ccc(Nc2nc(Nc3cccc(F)c3)nc3nccnc23)cc1C,5,3
CC(C)(C)c1ccc(S(=O)(=O)NC(=O)C2(C)CCN2C(=O)c2cccc3ccccc23)cc1 (centres undefined),-1,1
COc1ccc(N=Nc2c(C)[nH]n(-c3ccccc3)c2=O)c([N+](=O)[O-])c1,1,3
O=C(Cn1nnn(-c2cccs2)c1=O)Nc1cccc(Cn2[nH]c(=O)ccc2=O)c1,3,8
COc1cc2c(cc1OC)CN(C1CCCN(Cc3cccn3-c3ccccn3)C1)CC2 (centres undefined),3,7
Cc1cc(C)nc(-n2cccc2-c2nc(-c3ccccc3)c(C)[nH]2)n1,8,13
Cn1cc(Br)cc1C(=O)N1CCCC(C(=O)O)C1 (centres undefined),0,3
CCCN(CCc1ccccc1)c1ncnc2oc(C)nc12,-1,-1
O=C(c1cc(F)c(F)cc1Cl)N1CCN(c2ccc([N+](=O)[O-])cc2F)CC1,13,7
OCCC1CN(Cc2cc(F)ccc2F)CCN1C1CCCC1 (centres undefined),-3,-2
COc1cc(C)ccc1Oc1cc(N2CCC(C)CC2)ncn1,-6,-9
CN(C)S(=O)(=O)NCCc1c[nH]c2cc(F)ccc12,-4,-1
Cc1cnc(C)c(-c2cc(O)c3c(c2)CN(CCn2cccc2)CCO3)n1,-12,-4

Part of the list above in order of SMILES length, smallest number first:
mol,NPYLR7 agonist max-min,NPYLR7 agonist
OCCC1CN(Cc2cc(F)ccc2F)CCN1C1CCCC1 (centres undefined),-3,-2
COc1cc(C)ccc1Oc1cc(N2CCC(C)CC2)ncn1,-6,-9
CN(C)S(=O)(=O)NCCc1c[nH]c2cc(F)ccc12,-4,-1
Cc1cc(C)nc(-n2cccc2-c2nc(-c3ccccc3)c(C)[nH]2)n1,8,13
COc1cc2c(cc1OC)CN(C1CCCN(Cc3cccn3-c3ccccn3)C1)CC2 (centres undefined),3,7
O=C(c1cc(F)c(F)cc1Cl)N1CCN(c2ccc([N+](=O)[O-])cc2F)CC1,13,7
CC(C)(C)c1ccc(S(=O)(=O)NC(=O)C2(C)CCN2C(=O)c2cccc3ccccc23)cc1 (centres undefined),-1,1

Following part
mol,NPYLR7 agonist max-min,NPYLR7 agonist
CCCCSc1nc2c(c(=O)n1-c1ccc([N+](=O)[O-])cc1)SCC2,38,1
CC1CCc2c(sc3nc(CN(Cc4ccco4)CC(O)CN4CCOCC4)[nH]c(=O)c23)C1 (centres undefined),14,8
Cc1ccc2nc(SCC(=O)NC(C)(C)C)nc(=O)n2c1,3,6
CC#CC(=O)N1CCCC(C(=O)Nc2cccc(-c3cc4ccccc4[nH]3)c2)C1 (centres undefined),-7,-9
